Source: PubChem
VACV mCherry inh: vaccinia inhibition (mCherry reporter); Vaccinia virus mCherry reporter infection, fluorescence; about a quarter of the inactives have no number; Potency, µM (highest dose often 36.5 µM), without a hit: at the top dose activity change, negative = inhibition, hits mostly inhibitors; 310,000 tested, 0.63% active; AID 720579; active = well fitted inhibition curve with a large enough effect; inconclusive = small, poorly fitted or top-dose-only effect; inactive = no such curve, though single readings can be large or run the other way; tested in A549 cells; also: nearly all actives have a fitted effect of over 35% in size; inactives centre near -10
VACV Venus inh: inhibitors of vaccinia virus (Venus reporter); 330,000 tested, 0.46% active; Potency, µM (doses to about 36.5 µM), without a hit: at the top dose activity change, negative = inhibition, actives largely listed as inhibitors; Vaccinia virus Venus reporter expression, fluorescence; active means well fitted inhibition curve with a large enough effect; inconclusive means small, poorly fitted or top-dose-only effect; inactive means no such curve, though single readings can be large or run the other way; tested in A549 cells; also: nearly all actives have a fitted effect of over 30% in size; inactives centre near -10
The depositor's hits bear a star; i = inactive; ? = inconclusive; . = no result given; & = joins results of further samples; [ ] = remark or other dose. % is scaled to controls: 0 for no effect and ±100 for the full control effect; potency is read from the fitted curve at half-maximal effect.

canonical_smiles,VACV mCherry inh,VACV Venus inh
Cc1ccc(S(=O)(=O)N2CCC(c3ccncc3)CC2)c(C)c1,?,?
O=C1NC[C@H](Cc2ccc(O)cc2)N(CCc2cc(C(F)(F)F)cc(C(F)(F)F)c2)C1=O,-3%,-8%
O=S(=O)(c1ccc(=S)[nH]c1)N1CCN(Cc2ccccc2)CC1,-7%,-7%
CCn1cc(C(=O)NCC(=O)NC(C)(C)CO)c(=O)c2cc3c(cc21)OCO3,-11%,0%
CCN(CC)C(=O)C12C(=O)Oc3ccccc3C1C2(C)C(=O)c1ccc(F)cc1 (stereo not given),-5%,-15%
C=CCSc1nc2ccccc2[nH]1,.,-10%
O=C(Nc1cccc(C(F)(F)F)c1)c1cc(-c2ccc(Cl)cc2)on1,-4%,6%
COc1cc(CNC(=O)c2sc3ncccc3c2-n2cccc2)cc(OC)c1OC,-14%,1%
S=P(Nn1cnnc1)(c1ccc(Br)cc1)c1ccc(Br)cc1,-8%,2%
COc1cccc(-c2sc3ccc(OC)cc3c2-c2cnc(N3CCOCC3)nc2)c1,i,9%
CCOC(=O)c1cccc(NC(=O)N2CC=C(c3c[nH]c4ccccc34)CC2)c1,-8%,-2%
COc1ccc(C(=O)C23CC4CC(C2)CC(C(=O)c2ccc(OC)cc2)(C4)C3)cc1,-9%,-13%
CC(NC(=O)C12CC3CC(CC(C3)C1)C2)C(=O)N/N=C/C1=C(N2CCOCC2)C(=C\c2ccccc2)/CC1 (stereo not given),?,-25%
Cc1ccc(NC(=O)Cn2nc(-c3ccccc3)nc(Cc3ccccc3)c2=O)cc1,-9%,-8%
CS(=O)(=O)Nc1cccc(-c2ccc3ncnc(NCc4cccnc4)c3c2)c1,i,0%
COCCOC(=O)C1=C(C)NC2=C(C(=O)CC(c3cccs3)C2)C1c1ccsc1 (stereo not given),.,-24%
CC(C)(C)OC(=O)C[C@@H]1C/C=C\C[C@@H](CC(=O)N[C@H](CO)Cc2ccccc2)C(=O)NC[C@@H](c2ccccc2)OC1=O,-12%,?
Nc1nc2ccc([N+](=O)[O-])cc2[nH]1,i,-14%
Cc1cccc(NC(=O)NNC(=O)c2cc3ccccc3cc2O)c1C,0%,-1%
CCOC(=O)C1=C(C)NC(=O)NC1c1cn(-c2ccccc2)nc1-c1ccc(OC(C)C)cc1 (stereo not given),-9%,-8%
COc1ccccc1NC(=S)N1CCN(C(c2ccccc2)c2ccccc2)CC1,-7%,-27%
Cc1cccc(N2CCN(C(=O)CCC(=O)N3Cc4ccccc4Oc4ncccc43)CC2)c1C,?,-22%
CN(C)c1ccc(CNC(=O)C2(C)Cc3c(-c4cccc(C(F)(F)F)c4)ccnc3O2)cc1 (stereo not given),-24%,?
CC(CC(=O)Nc1cccnc1)c1ccccc1 (stereo not given),i,-1%

For convenience, some entries already given:
canonical_smiles,VACV mCherry inh,VACV Venus inh
CN(C)c1ccc(CNC(=O)C2(C)Cc3c(-c4cccc(C(F)(F)F)c4)ccnc3O2)cc1 (stereo not given),-24%,?
CC(CC(=O)Nc1cccnc1)c1ccccc1 (stereo not given),i,-1%

New compounds follow.
canonical_smiles,VACV mCherry inh,VACV Venus inh
CCOc1ccc(S(=O)(=O)N2CCN(S(=O)(=O)c3ccc(C(C)=O)cc3)CC2)cc1,i,-5%
CCOC(=O)c1cccc(NC(=O)C(Cc2ccccc2)NS(=O)(=O)c2cccc3nsnc23)c1 (stereo not given),-1%,-13%
O=C(CCn1c(=O)sc2ccccc21)NCCC1=CCCCC1,-14%,-7%
Cc1ccccc1N(C(=O)CNC(=O)c1ccco1)C(C(=O)NC1CCCC1)c1ccncc1 (stereo not given),i,-4%
CC(C)c1ccc(/C=N/NC(=O)c2cccc(Cl)c2)cc1,?,?
CC(C)(C)c1ccc(-c2nc(SCCOc3ccc(Cl)cc3)n3[nH]c(=O)cc3n2)cc1,-15%,-2%
Cc1ccccc1N1C(=O)c2ccccc2N2C(=O)c3ccccc3C12 (stereo not given),.,-14%
O=C(/C=C/c1cccc2ccccc12)NCCC1=CCCCC1,-4%,1%
O=C(Nc1ncn[nH]1)C(F)(F)C(F)F,.,-7%
CCOC(=O)c1c(C)oc2ccc(N(C(=O)Oc3ccccc3)S(=O)(=O)c3ccccc3)cc12,?,-17%
Cc1ccc(OCC(=O)Nc2cc(S(=O)(=O)N3CCCCC3)ccc2N2CCN(C)CC2)c(C)c1,?,?
Cc1nc(-c2nnc(SCC(=O)Nc3ccc(C(F)(F)F)cc3)n2C)cs1,-11%,-3%

Single records, as listed above. Order of values: VACV mCherry inh	VACV Venus inh
`O=C(/C=C/c1cccc2ccccc12)NCCC1=CCCCC1` is listed with -4%	1%
`CCOc1ccc(S(=O)(=O)N2CCN(S(=O)(=O)c3ccc(C(C)=O)cc3)CC2)cc1` is listed with i	-5%
`Cc1nc(-c2nnc(SCC(=O)Nc3ccc(C(F)(F)F)cc3)n2C)cs1` is listed with -11%	-3%

Remaining list, next part
canonical_smiles,VACV mCherry inh,VACV Venus inh
Cn1c(=O)n(C)c2cc(NS(=O)(=O)c3ccc(F)cc3)c(NCc3ccccc3)cc21,-29%,-18%
COc1c(Cl)cc(Cl)cc1C(=O)Nc1ccc(C(=O)O)cc1,i,-9%
Cc1ccc(NC(=O)NCc2cccn2Cc2ccccc2)c(C)c1,2%,-9%
C=CCc1ccccc1OCC(=O)N/N=C/c1ccccc1OCC,i,-11%
CC1(C(=O)NS(=O)(=O)c2ccc(F)cc2F)CCN1C(=O)c1cccc(F)c1 (stereo not given),i,-9%
CCCC(O)(CCC)C(=O)NN(C(=O)CCl)c1cccc(C)c1,-25%,1%
COc1ccc(-n2cnnc2SCC(=O)Nc2cccc([N+](=O)[O-])c2)cc1,-16%,-8%
CNc1nc(NC)nc(-n2c(C(F)(F)F)nc3ccccc32)n1,?,?
Cc1oc2ccc(O)cc2c1C(=O)c1ccc(Br)cc1,?,-26%
Cc1ccccc1NC(=O)NNC(=O)CCc1ccccc1,-12%,0%
Cc1ccc(C(=O)NCCN2C3=NC[C@H](Cc4ccc(O)cc4)N3C[C@H]2Cc2ccc(O)cc2)cc1Br,?,6%
Cc1ccc(CSc2nc3ccccc3c3nc(CCn4c(C)nc5ccccc54)nn23)cc1,-5%,5%

The list continues:
Every second line gives: VACV mCherry inh, VACV Venus inh
> COc1ccc(Cl)cc1S(=O)(=O)NCc1ccncc1
    -1%, -12%
> CCOc1ccccc1-c1nc(CN2CCCN(C(=O)c3ccco3)CC2)c(C)o1
    -3%, -5%
> CCc1c(C)nc2[nH]nc(NC(=O)C(F)(F)F)n2c1=O
    -18%, -7%
> CC(C)(C)c1ccc(S(=O)(=O)NCc2ccc3c(c2)CCN3C(=O)c2ccccc2)cc1
    -29%, -22%
> CNC(=O)c1ccc2snnc2c1
    -13%, -10%
> COc1ccc(CC(=O)N2CCc3cc(OC)c(OC)cc3C2COc2ccc(F)cc2)cc1OC (stereo not given)
    2%, -6%
> CCOC(=O)[C@]12CCC=C1N(CCC1=CCCCC1)C(=O)[C@H](CC(=O)N1CCN(C(=O)C3CC3)CC1)C2
    -4%, 0%
> CCC1=C(OC(=O)N(CC)CC)N2C(=O)OC(=NCCc3c[nH]c4ccccc34)[C@]2(C)[C@H]2C1=CC[C@H]1C(=O)N(CC)C(=O)[C@H]12
    ?, -14%
> COc1ccc(-c2cc(C(F)(F)F)n3nc(C(=O)NCC45CC6CC(CC(C6)C4)C5)cc3n2)cc1OC
    -3%, -11%
> CCOC(=O)C1=C(C(F)(F)F)Nc2ncnn2C1c1cccc(OC)c1OC (stereo not given)
    -10%, -1%&-14%
> Cc1csc(NC(=O)c2cnc3ccccc3n2)n1
    3%, 8%
> COc1ccc([C@@H]2CC=C(C(=O)O)[C@H](c3ccc(Br)cc3)N2S(=O)(=O)c2ccccc2C)cc1
    -12%, -3%
> COc1cccc(/C=C/C(=O)NCc2ccc(S(N)(=O)=O)cc2)c1
    -9%, -5%
> COc1ccc(/C=N\NC(=S)SCN2C(=O)C3CCC(C)(C2=O)C3(C)C)cc1 (stereo not given)
    -20%, -13%
> O=C(NCCc1ccccc1)c1ccc(NC(=O)C2CC2)cc1
    16%, -6%
> CCCc1nc(C)c2c(=O)[nH]c(-c3cc(S(=O)(=O)N4CCN(CC)CC4)ccc3OCC)nn12
    -7%, -16%
> COc1ccc(C(=O)NC2CCCN(Cc3ccccc3F)C2)c(OC)c1OC (stereo not given)
    i, -10%
> Cc1ccc2c(c1)c1c(n2CC(O)Cn2c(C)nc3ccccc32)/C(=N\O)CCC1 (stereo not given)
    -32%[1.46 µM], ?
> CCOC(=O)c1ccc(NC(=O)N2CCN(C(=O)C3CCCO3)CC2)cc1 (stereo not given)
    -2%, 9%
> COc1cccc(OCCOc2ccccc2[N+](=O)[O-])c1
    -5%, -15%
> Cc1nn(C)c(C(=O)Nc2ccn(C34CC5CC(CC(C5)C3)C4)n2)c1[N+](=O)[O-]
    -14%, ?
> NC(=O)c1ccsc1NC(=O)CS(=O)(=O)c1ccc(F)cc1
    -9%, -8%
> Cc1cccc(C)c1NC(=O)C1CC2CCC1C2 (stereo not given)
    5%, 2%
> CCOC(=O)C1CCN(C(=O)c2ccccc2NS(=O)(=O)c2ccc(C)cc2)CC1
    i, -12%
> COC(=O)C1=C(O)/C(=C\c2cc(C)n(-c3ccccc3C)c2C)N=C1C
    0%, -9%
> O=C(Nc1ccccc1)C1=C[C@H](c2ccccc2)C[C@H](OCCCCO)O1
    i, -8%
> COc1cc(Nc2nc(SCc3ccccc3Cl)nc3ccccc23)cc(OC)c1
    -4%, -7%
> Cc1cc(Br)ccc1NC(=O)C1CCN(S(=O)(=O)c2cccc3nsnc23)CC1
    -25%, -25%
> C[N+]1(CC2COC(c3ccco3)O2)CCCCC1 (stereo not given)
    -6%, -18%
> CCCCOc1ccc(C(=O)Nc2ccc(S(=O)(=O)Nc3cc(C)on3)cc2)cc1OC
    -12%[1.46 µM], -8%
> COCC(=O)Nc1nc2ccc(C)cc2s1
    ?, -14%
> CCOc1ccc(CCNC(=O)CCCn2nc(C)c3sc4ccccc4c3c2=O)cc1
    -19%, -21%
> CC(OC(=O)/C=C/c1cccs1)C(=O)NC1CCCCC1C (stereo not given)
    i, -10%
> Cc1nc(C)c(-c2ccc(SCC(=O)Nc3cccc(Cl)c3C)nn2)s1
    -4%, -20%
> S=C(NCC1CCCO1)NC1CCCC1 (stereo not given)
    -2%, -15%
> CCCCn1c(N)c(N(CCOC)C(=O)c2cc(S(=O)(=O)N3CCOCC3)ccc2F)c(=O)[nH]c1=O
    i, -15%
> CCOc1cc(N2CCOCC2)c(OCC)cc1NC(=O)COC(=O)/C=C/c1ccc(OC(F)F)cc1
    i, -11%
> Cc1ccc(C)c(Cn2c(=O)n(Cc3ccco3)c(=O)c3oc4ccccc4c32)c1
    -5%, -14%
> COc1ccc(CCCC(=O)NC(C)c2ccccc2)cc1 (stereo not given)
    -18%, -22%
> CC(=O)Nc1ccc(NC(=O)COC(=O)Cn2cnc3ccccc32)cc1
    i, -9%
> COc1ccc(C(=O)N2CCN(C(=O)Cc3ccccc3)CC2)cc1OC
    -14%, -3%
> CNC(CC(=O)c1ccc([N+](=O)[O-])cc1)C(Cl)(Cl)Cl (stereo not given)
    -16%, -3%
> COc1ccccc1NC(=O)c1cccc(S(=O)(=O)N2CCN(Cc3ccccc3)CC2)c1
    -2%, -3%
> CCCCCCCNC(=O)c1cc(-c2ccncc2)nc2ccccc12
    ?, -14%
> O=C(Nc1ccccc1Cl)N1CCN(c2ncccn2)CC1
    ., -18%
> COc1ccc2c(c1)C(c1ccc(N3CCOCC3)cc1)=NNC(c1cccnc1)=N2
    -2%, -8%
> Cc1ccc(/C([O-])=C(/C(=S)NCc2ccc3c(c2)OCO3)[n+]2ccc(N(C)C)cc2)c(C)c1
    -8%, -25%
> CC(Oc1ccc(Cl)cc1Cl)c1ccn[nH]1 (stereo not given)
    0%, -2%
> CCCCNC(=O)COC(=O)CCC(=O)c1ccc(Cl)cc1
    -15%, 15%
> CCN(CC)CCCNC(=O)C1c2ccccc2C(=O)N(CCOC)C1c1ccc(F)cc1 (stereo not given)
    -4%, -5%

Next section:
Every second line gives: VACV mCherry inh, VACV Venus inh
> O=C(Nc1cn(-c2ccccc2)nc1-c1ccc(Cl)cc1)c1ccccc1
    -1%, -14%
> C=C(C)c1cccc(C(C)(C)NC(=O)NC2CCCC2)c1
    -23%, -21%
> COc1ccccc1N=Nc1ccc(O)c2ncccc12
    ?, ?
> C[n+]1ccc(C(=O)NCCC[N+](C)(C)C)cc1/C=N/O
    -12%, -7%
> Cc1cccc(CNC(=O)C2CCN(c3nc4ccc(Cl)cc4[nH]3)CC2)c1
    -10%, -7%
> NNC(=O)c1csc(-c2ccccc2)n1
    -9%, -9%
> Cc1ccc(C)c(N2CCN(CC3CC=CCC3)CC2)c1 (stereo not given)
    ?, 0%

A second format for some results above:
Cc1cccc(CNC(=O)C2CCN(c3nc4ccc(Cl)cc4[nH]3)CC2)c1
  VACV mCherry inh: -10% | VACV Venus inh: -7%

NNC(=O)c1csc(-c2ccccc2)n1
  VACV mCherry inh: -9% | VACV Venus inh: -9%

Cc1ccc(C)c(N2CCN(CC3CC=CCC3)CC2)c1 (stereo not given)
  VACV mCherry inh: ? | VACV Venus inh: 0%
